Screens as filed in PubChem BioAssay.
VDR inhibitor – blocks the human vitamin D receptor. P11473. VDR-SRC2-3 peptide fluorescence polarization, 2 h. Potency, µM, inactives show max response, negative = inhibition, hits mostly inhibitors. 400,000 tested, 0.93% active; active = well fitted inhibition curve with a large enough effect; inconclusive = small, poorly fitted or top-dose-only effect, or another doubt; inactive = no such curve, though single readings can be large or run the other way; note: series mostly up to about 120 µM
Target sequence (P11473 whole entry, looked up): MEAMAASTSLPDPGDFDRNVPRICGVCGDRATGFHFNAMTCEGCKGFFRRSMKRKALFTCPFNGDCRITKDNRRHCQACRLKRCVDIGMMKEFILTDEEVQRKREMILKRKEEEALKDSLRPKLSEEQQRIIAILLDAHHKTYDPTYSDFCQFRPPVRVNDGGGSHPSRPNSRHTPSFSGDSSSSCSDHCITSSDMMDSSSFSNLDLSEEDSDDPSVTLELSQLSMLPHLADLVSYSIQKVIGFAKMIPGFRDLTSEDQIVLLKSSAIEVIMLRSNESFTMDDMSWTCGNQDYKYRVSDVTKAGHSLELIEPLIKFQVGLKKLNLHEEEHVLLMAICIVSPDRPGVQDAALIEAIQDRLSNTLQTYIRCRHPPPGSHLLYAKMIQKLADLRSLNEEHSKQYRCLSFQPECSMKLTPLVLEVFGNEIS
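Measured by FP: displacement of SRC2-3 coactivator peptide from VDR by library compounds, following a two-hour ambient incubation.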
* = called active by the depositor; ? = inconclusive; & = joins results of further samples; [ ] = remark or other dose. % is set by controls: 0 for no effect and ±100 for the full control effect; potency is the fitted concentration of half-maximal effect. A portion of the library; rates above refer to the full screens.

SMILES	VDR inhibitor
CCOc1ccccc1N(CC(=O)NCC1CCCO1)C(=O)CNS(=O)(=O)c1ccccc1 (stereo not drawn)	16%
COc1ccc(-c2nc3ccc(NS(=O)(=O)c4ccc(C)cc4)cc3o2)cc1	-5%
O=C(Nc1ccc(-c2nc3ccccc3o2)c(O)c1)c1ccccc1	12%
O=C(Cn1nc(-c2ccccc2)oc1=O)OCC(=O)c1ccc(F)c(F)c1	-9%
CCCOc1cccc(C(=O)N/N=C/c2ccoc2)c1	-9%
COc1ccccc1C(=O)NCc1ccc(-c2nc3ccccc3s2)cc1	-7%
O=C(NCCN1CCOCC1)C1CC(=O)N(c2cccc(C(F)(F)F)c2)C1 (stereo not drawn)	1%
O=C(NN1C(=O)c2ccccc2C1=O)C1CCCCC1	1%
COc1cc(OC)cc(C(=O)N(CCCN2C(=O)c3cccc4cccc(c34)C2=O)c2cccc(OC)c2)c1	-6%
COC(=O)C(C)n1cnc2c(nnn2-c2ccc(C)cc2)c1=O (stereo not drawn)	-20%
COc1ccc(Nc2nc(N3CCOCC3)nc(N3CCOCC3)n2)cc1	-10%
O=c1c2ccccc2nc(SCc2ccncc2)n1CC1CCCO1 (stereo not drawn)	6%
COc1ccccc1Nc1ccc(C(=O)NC2CCCCC2)cn1	13%
CC1(C)CC(=O)C(CC2=C(N)CC(C)(C)CC2=O)=C(N)C1	19%
Cc1ccc(CN(Cc2ccco2)C(=O)c2ccc(Cl)cc2)o1	5%
Cn1c(SCC(=O)NCc2cccs2)nnc1-c1ccncc1	1%
CN(C(=O)c1ccc(Br)o1)C1(C)CCS(=O)(=O)C1 (stereo not drawn)	-14%
O=C(CSc1nc2ccccc2c(=O)n1CC1CCCO1)Nc1ccccc1 (stereo not drawn)	9%
O=C(COC(=O)c1cc(S(=O)(=O)N2CCCC2)ccc1O)Nc1ccc(F)cc1F	-5%
CCCn1c(CN2CCN(c3cccc(Cl)c3)CC2)nc2c1c(=O)n(C)c(=O)n2C	-14%
COc1ccc(Br)c(C(=O)OCC(=O)NC2CC2)c1	-18%
CCOC(=O)N1CCN(Cc2nc3cc(NC(=O)c4cccs4)ccc3n2CC)CC1	9%
CN(C)S(=O)(=O)N1CCC(Oc2ccc(C(=O)N3C[C@@H]4CCC[C@H]3C4)cc2)CC1	7%
CN(C)c1nc(N)nc(CSc2nc3cc(Cl)ccc3o2)n1	17%
COc1cc(/C=N/N2CCCCC2)cc([N+](=O)[O-])c1O	31%[activator]
C/C(=C\c1ccccc1F)C1Nc2cccc3cccc(c23)N1	-7%
O=C(CC(=O)Nc1ccc(Cl)cc1Cl)Nc1ccc(Cl)cc1Cl	-2%
COC(=O)N1CCN(/[N+]([O-])=N/Oc2ccc([N+](=O)[O-])cc2[N+](=O)[O-])CC1	?
Cc1cccc(N(C(=O)CNC(=O)c2ccco2)C(C(=O)NC2CCCC2)c2cccnc2)c1C (stereo not drawn)	-6%
CC(NC(=S)NC1CCCCC1)C(c1cccs1)N1CCOCC1 (stereo not drawn)	11%
CC1(C)Cc2ccccc2-c2nnc(-c3ccccn3)n21	-139%
COc1ccccc1CNC(=O)CSC1=Nc2ccccc2N=C(c2ccc(F)cc2)C1	-5%
COc1ccc(COc2cc(-c3cccc(OC)c3)nc3ccc(NC(=O)c4ccc(Cl)cc4)cc23)cc1	-8%&1%
Cc1ccc(OCC(=O)NNC(=O)C2CCCO2)c(C)c1 (stereo not drawn)	4%
c1ccc(-c2nc3ccccc3o2)nc1	9%
COc1cc(/C=C/C(=O)O)cc(S(=O)(=O)N2CCc3ccccc3C2)c1OC	0%
CC(Oc1ccc2c3c(c(=O)oc2c1)CCC3)C(=O)N[C@@H](Cc1ccccc1)C(=O)O (stereo partly drawn)	?
O=C(NCCc1c[nH]c2ccccc12)c1ccc(S(=O)(=O)NCc2ccco2)cc1	-14%
Cc1ccc(-n2c(SCC(=O)Nc3ccc4c(c3)OCO4)nnc2-c2ccccn2)cc1	5%
CCn1c(=O)c(C(=O)CN2CC(C)OC(C)C2)c(N)n(Cc2ccccc2)c1=O (stereo not drawn)	13%
CC1=C(C/C=C(\C)CCCC(C)CCCC(C)CCCC(C)C)C(=O)c2ccccc2C1=O (stereo not drawn)	?
CN(c1ccccc1)C(c1ccc(F)cc1)c1nnnn1CC1CCCO1 (stereo not drawn)	-12%
CCCCN(CCCC)CCNC(=O)c1cn(CC)c2ccc(S(=O)(=O)N3CCCC3)cc2c1=O	?
CCCCn1c(N)c(N(CC)C(=O)c2cc(CC)c(C)s2)c(=O)[nH]c1=O	1%
Cc1ccc(-n2c(SCC(=O)Nc3cccc(S(N)(=O)=O)c3)nc3ccccc32)cc1	6%
COc1ccc(-c2nnc(SCC(=O)N3CCCc4ccccc43)o2)cc1OC	-6%
Cc1nccn1CC(=O)N/N=C/c1ccccc1O	22%
C/C(=N\Nc1ccc(Cl)c(Cl)c1)c1ccc(-n2ccnc2)cc1	0%
CC1=C(NCCc2ccccc2)CCC1=O	3%
COc1ccc(C(=O)Nc2nc3ccccc3s2)cc1	-5%
O=C(COC(=O)CC1SC(N2CCCC2)=NC1=O)Nc1c(F)c(F)c(F)c(F)c1F (stereo not drawn)	26%
CCCCn1c(N)c(N(CCC(C)C)C(=O)c2sc3nc4n(c(=O)c3c2C)CCC4)c(=O)[nH]c1=O	10%
CN1CC2CCCC3(C1)C(=O)NC1(CCCCC1)N=C23 (stereo not drawn)	-15%
COc1ccc(NS(=O)(=O)c2cc3c(cc2C)N(C)CCO3)cc1	15%
Cc1cc(C)c(NC(=O)C2CCN(C(=O)N3CC(C)Oc4ccc(Cl)cc43)CC2)c(C)c1 (stereo not drawn)	-3%
COc1ccc(NC(=O)C2CCCNC2)cc1OCC(C)C (stereo not drawn)	-2%
CS(=O)(=O)N1CCc2cc(C(=O)N3CCN(c4cccc(Cl)c4)CC3)ccc21	1%&2%
O=C(O)CSc1nnc(-c2ccccc2)o1	-2%
CCN(CC)c1ccc2cc(-c3nc(-c4ccc(OC)cc4)cs3)c(=O)oc2c1	-12%
COc1ccc(C2C(Oc3ccccc3)C(=O)N2c2ccc(C)c(C)c2)cc1OC (stereo not drawn)	-4%
The list continues.
SMILES	VDR inhibitor
COc1ccccc1/C=C/C(=O)N1CCOCC1	0%
COc1ccccc1-c1c(C)nn2c(N3CCN(c4ccccc4OC)CC3)cc(C)nc12	-24%
Nc1nc(CN2CCCCCC2)nc(Nc2ccc(F)cc2)n1	5%
CCCCN1C=C(C(=O)OC)C(c2ccccc2C(F)(F)F)C(C(=O)OC)=C1	7%
COCCCNC(=O)CSc1nc2ccccc2c(=O)n1Cc1ccco1	11%
CC1CCN(Cc2nc(-c3ccc(Cl)cc3)no2)CC1	3%
Cc1ccc(CN(C)C(=O)c2ccccc2Sc2ccccc2C#N)cc1	-6%
CC1(C)Cc2cccc(OCC(=O)N3CCN(c4cccc(C(F)(F)F)c4)CC3)c2O1	1%
COc1ccc(S(=O)(=O)N2CCCCC2)cc1NS(=O)(=O)c1cc(Cl)ccc1Cl	-19%
CC(C)S(=O)(=O)c1cnc(-c2cccnc2)nc1N	11%
OCCN1CCN(CC/C=C2\c3ccccc3Sc3ccc(C(F)(F)F)cc32)CC1	-16%
CCc1ccc(O)c(C(=O)c2cnc3cc(-c4ccc(C)cc4)nn3c2)c1	0%
Cc1cc(C)n2nc(C(=O)NC(C)(C)C)nc2n1	4%
O=C(COc1ccccc1)N(Cc1cccnc1)c1nc2ccc(F)cc2s1	16%
CSc1ccc(CN(C)C(C)C(=O)NCC2CCCCC2)cc1 (stereo not drawn)	-18%
CCn1ccc2c(OCC(=O)Nc3ccccc3C(F)(F)F)cccc2c1=O	13%
Cc1ccc(CNC(=O)Nc2ccccc2)n1C	6%
CCOc1ccc(OCC)c(Nc2nc3ccccc3n3nnnc23)c1	1%
C=CCSc1nc(N)c(C(=O)Nc2ccccc2C)cc1C(N)=O	0%
Cc1ccc(C(=O)Nc2ccccc2N2CCCCC2)o1	-20%
CC(=O)Nc1ccc(NC(=O)C(C)OC(=O)CCc2nc3ccccc3s2)cc1 (stereo not drawn)	2%
Brc1ccsc1-c1csc(-c2ccncc2)n1	-7%
O=C(COC(=O)C1CC2C=CC1C2)NCc1ccccc1Cl (stereo not drawn)	2%
COc1ccc(NC(=O)c2cc(C(C)C)on2)cc1OC	-12%

Sorted by the number under VDR inhibitor (smallest number first): some entries from above.
SMILES	VDR inhibitor
CSc1ccc(CN(C)C(C)C(=O)NCC2CCCCC2)cc1 (stereo not drawn)	-18%
COc1ccc(NC(=O)c2cc(C(C)C)on2)cc1OC	-12%
C=CCSc1nc(N)c(C(=O)Nc2ccccc2C)cc1C(N)=O	0%
CC(=O)Nc1ccc(NC(=O)C(C)OC(=O)CCc2nc3ccccc3s2)cc1 (stereo not drawn)	2%
Cc1ccc(CNC(=O)Nc2ccccc2)n1C	6%
CCn1ccc2c(OCC(=O)Nc3ccccc3C(F)(F)F)cccc2c1=O	13%

More records.
SMILES	VDR inhibitor
CC(C)COC(=O)NCCCOC(=O)Nc1ccccc1	6%
COc1ccc(OC)c(-c2csc(NC(=O)Cn3[nH]c(=O)c4ccccc4c3=O)n2)c1	7%
COCCCN(CC(=O)NCc1ccccc1)S(=O)(=O)c1ccc(C)cc1	-14%
O=C(c1coc(=O)c(Br)c1)N1CCOCC1	8%
COCCn1c(SCC(=O)N2CCOCC2)nnc1-c1ccco1	7%
CCC(C)(C(=O)NC1CCCCC1)N(Cc1cccs1)C(=O)c1ccccn1 (stereo not drawn)	19%
CCOc1ccc(Nc2nc(N3CCOCC3)nc(N3CCOCC3)n2)cc1	-13%
COc1ccc(Oc2ccc(NC(=O)c3ccccc3C)cc2)cc1	6%
CC(C)C[C@H](NC(=O)Nc1cccc(Cl)c1)C(=O)O	-15%
CCOC(=O)COc1cc2c(C(=O)OCC)c(C)oc2cc1Br	?
Cc1nn(C)c(Cl)c1/C=N/OC(=O)c1ccc(F)cc1	-20%
N#Cc1nc(-c2ccc(OCc3ccccc3)cc2)oc1N1CCOCC1	-5%
COc1ccc(-c2cc(C(=O)OCC(=O)N(C)C)c3ccccc3n2)cc1	-1%
CCCc1cnc(N2CCN(C(=O)c3ccc(OC)cc3)CC2)nc1	2%
CCOC(=O)c1cnc2ccc(Cl)cc2c1Nc1ccc(OCC)cc1	4%
CN(C)S(=O)(=O)c1ccc(Cl)c(NC(=O)CSc2nc3c(cc2C#N)C(=O)CCC3)c1	-8%
CCOc1ccc(N(Cc2cc3ccc(C)cc3[nH]c2=O)S(=O)(=O)c2ccccc2)cc1	-8%
O=C1c2ccccc2NC(c2ccccc2O)N1Cc1ccco1 (stereo not drawn)	-16%
O=C(Cn1cc2c(n1)CCCCC2)NCCN1CCOCC1	-7%
Cc1onc(-c2ccccc2)c1C(=O)OCC(=O)Nc1ccc(OC(F)(F)F)cc1	-5%
O=C1C=CC(O)(c2cc(=O)c3c(O)cc(O)cc3o2)C=C1	32µM*
C[C@H](CO)N1C[C@H](C)[C@@H](CN(C)S(=O)(=O)c2cn(C)cn2)Oc2ccc(NC(=O)C3CCCCC3)cc2C1=O	0%
CCOC(=O)C1=C(CC)Nc2ccccc2N=C1NC(=O)c1cc(S(=O)(=O)N2CCOCC2)ccc1C	24%
COc1ccccc1CNC(=O)CCCN1C(=O)CCn2nc(-c3cn(C)c4ccccc34)cc21	3%
CCOc1ccc2c(C)c(C)c(=O)oc2c1OCC	0%
CCCn1c(=O)[nH]c(=O)c2c1nc(-c1ccccc1OC(F)F)n2CCOC	-15%
O=C(O)CC1SC(=Nc2cccc(O)c2)NC1=O (stereo not drawn)	-13%
O=C1c2ccccc2-c2nc3ncnn3c(-c3ccccc3Cl)c21	-10%
CC(C)N(Cc1cc2ccccc2[nH]c1=O)C(=O)C1CCCCC1	-7%
COc1ccccc1COC(=O)N/C=C/c1ccco1	-25%
CC(=O)Nc1ccc(C2CC(c3ccc(Cl)cc3)=NN2c2ccccc2)cc1 (stereo not drawn)	6%
Oc1cc(NCc2cccnc2)ccc1-c1nc2ccccc2o1	16%
COc1ccc(C(=O)NCCNc2nc3ccc(C)cc3cc2C#N)cc1	-11%
CC(=O)Oc1ccc(C(=O)[C@H]2[C@H]3C(=O)N(c4ccc(C)cc4C)C(=O)[C@H]3[C@@H]3C=CC=NN32)cc1	8%
CCCN1CCN(C(=O)CS(=O)(=O)Cc2nc(-c3cccc(OC)c3)oc2C)CC1	-8%
COc1cccc(/C(C#N)=C/c2c(-c3ccc(Cl)cc3)nc3c(C)cccn23)c1	-1%
Cc1ccc(N/C=C/c2onc(C)c2[N+](=O)[O-])cc1	-27%
O=C(CCCCCNC(=O)N1CCn2c1nc1ccccc12)NCc1ccccc1	-15%
Cc1cc(C)c2sc(NC(=O)C3=COCCO3)nc2c1	7%
CC(C)C[C@H](NC(=O)OC(C)(C)C)C(=O)N[C@@H](CO)[C@H](O)[C@@H]1C[C@@H]1C(=O)N(C)C	1%
CC(=O)Nc1ccc(S(=O)(=O)N2CCN=C2SCc2ccccc2C)cc1	3%
CCOc1nc(NCCO)nc(Nc2ccccc2F)n1	-15%
COc1cc(/C=N/NC(=O)Cn2cnc3ccccc3c2=O)ccc1O	-11%
C=CCc1cccc(/C=N/NC(=O)CNc2ccccc2)c1O	4%
CNC(=O)COc1coc(CN2CCN(Cc3ccccc3)CC2)cc1=O	-4%
CS(=O)(=O)N(CC(=O)N1CCCCC1)c1sc2c(c1C#N)CCCC2	-6%

Reformatted with bars between the fields: entries from further up.
structure | VDR inhibitor
COc1ccc(Nc2nc(N3CCOCC3)nc(N3CCOCC3)n2)cc1 | -10%
O=c1c2ccccc2nc(SCc2ccncc2)n1CC1CCCO1 (stereo not drawn) | 6%
COc1ccccc1Nc1ccc(C(=O)NC2CCCCC2)cn1 | 13%
CC1(C)CC(=O)C(CC2=C(N)CC(C)(C)CC2=O)=C(N)C1 | 19%
Cc1ccc(CN(Cc2ccco2)C(=O)c2ccc(Cl)cc2)o1 | 5%
Cn1c(SCC(=O)NCc2cccs2)nnc1-c1ccncc1 | 1%
